Compound activity as filed in PubChem BioAssay.
Cruzain inh Det: qHTS Assay for Promiscuous and Specific Inhibitors of Cruzain (with detergent). purified cruzain, Z-FR-AMC fluorescence, 0.01% Triton. Potency, µM, inactives show max response, negative = inhibition, actives largely listed as inhibitors. AID 1478, 2009. 200,000 compounds, 0.43% hits; active = well fitted curve in the direction sought with a large enough effect; inconclusive = small, poorly fitted or top-dose-only effect, or another doubt; inactive = no such curve, though single readings can be large; an effect the other way counts as inactive or inconclusive;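 also: plate controls were neutral wells for no effect and buffer without enzyme for full effect; nearly all actives have a fitted effect of over 40% in size; top concentration of the series not given in the record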
Target sequence (P25779 123-467 limits assumed): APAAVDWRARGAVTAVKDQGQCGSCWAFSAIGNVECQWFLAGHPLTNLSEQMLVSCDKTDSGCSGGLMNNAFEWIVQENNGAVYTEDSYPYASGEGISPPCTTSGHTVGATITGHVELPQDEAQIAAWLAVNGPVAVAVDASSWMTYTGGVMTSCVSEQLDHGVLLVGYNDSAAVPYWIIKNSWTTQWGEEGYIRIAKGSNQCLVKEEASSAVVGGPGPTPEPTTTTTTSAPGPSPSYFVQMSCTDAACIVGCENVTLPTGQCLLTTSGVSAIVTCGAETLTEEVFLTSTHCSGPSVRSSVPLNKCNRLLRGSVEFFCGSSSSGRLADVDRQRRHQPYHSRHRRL
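Detergent-containing arm of a paired screen for aggregation-based inhibition: 0.01% Triton X-100 present. Cruzain at 1.5 nM cleaved 2 uM Z-FR-AMC at pH 5.5 with 5 mM DTT; AMC fluorescence gain over 60 s measured activity.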
MARV entry inh: qHTS for inhibitors of binding or entry into cells for Marburg Virus; Potency, µM (titrated, usually from 37.8 µM), inactives show at the top dose activity change, negative = inhibition, hits mostly inhibitors; 300,000 compounds, 1.8% hits; Marburg virus pseudotyped entry inhibition, cell reporter; control for the full effect not named in the record; about a third of the inactives were read at about 46 µM; active = well fitted inhibition curve with a large enough effect; inconclusive = small, poorly fitted or top-dose-only effect, or effect the other way; inactive = flat fitted curve, though single readings scatter; tested in HEK293 cells; about a fifth of its hits are not listed in these tables; also: % is scaled to controls: 0 for no effect and ±100 for the full control effect; luciferase read-out
RE007 growth inh: qHTS Assay for Inhibitors of the HIV-1 protein Vpr; S. pombe RE007 Vpr strain, BacTiter-Glo ATP luminescence, 24 h; control for the full effect not named in the record; AID 651644, 2012; Potency, µM (series often up to 92.2 µM), for the others: at the highest dose activity change, negative = less growth; 360,000 compounds, 0.21% hits; active = well fitted falling curve with a large enough effect; inconclusive = small, poorly fitted or top-dose-only effect; inactive = no such curve, though single readings can be large or run the other way;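 also: % is scaled to controls: 0 for no effect and ±100 for the full control effect; nearly all actives have a fitted effect of over 50% in size; the assay follows cell death caused by Vpr and the record does not say whether a fall means rescue or toxicity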
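Fission yeast strain RE007, carrying one chromosomally integrated HIV-1 vpr copy, was seeded at OD 0.01 in PMG+AL medium with 23 nL pinned compound. After 24 h at 30 °C and 99% humidity, viability was read by BacTiter-Glo luminescence.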
2A StopGo: High Throughput Screening for Foot and Mouth Disease Virus Antivirals; human cells with a luciferase reporter of 2A StopGo recoding; control for the full effect not named in the record; Potency, µM (doses to about 57.9 µM), without a hit: at the top dose signal change, negative = less light; 410,000 compounds, 1.2% hits; active = well fitted falling curve with a large enough effect; inconclusive = small, poorly fitted or top-dose-only effect; inactive = no such curve, though single readings can be large or run the other way; tested in HEK293T cells; also: % is scaled to controls: 0 for no effect and ±100 for the full control effect; nearly all actives have a fitted effect of over 45% in size; luciferase light after 4 h
Lassa entry inh: qHTS for Inhibitors of binding or entry into cells for Lassa Virus; AID 540256, 2011; Lassa virus pseudotype entry inhibition, cell reporter; control for the full effect not named in the record; Potency, µM (titrated, usually from 37.9 µM), for inactives: top-dose activity change, negative = inhibition, hits mostly inhibitors; 300,000 compounds, 1.2% hits; active means well fitted inhibition curve with a large enough effect; inconclusive means small, poorly fitted or top-dose-only effect, or effect the other way; inactive means flat fitted curve, though single readings scatter; tested in HEK293 cells; also: % is scaled to controls: 0 for no effect and ±100 for the full control effect; nearly all actives have a fitted effect of over 50% in size; luciferase read-out
NS1 inh: qHTS Assay for Inhibitors of Influenza NS1 Protein Function. S. cerevisiae slowed by influenza A NS1, growth recovery by OD600. Potency, µM (doses to about 46.1 µM), for inactives: at the top dose activity, positive = more growth. 270,000 compounds, 0.4% hits; also: actives are rising curves; nearly all actives have a fitted effect of over 50% in size
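S. cerevisiae expressing influenza A NS1, grown in glucose, washed, then diluted 1:100 into pH 6.0 -URA galactose medium with 23 nl compound. Growth recovery read as OD600; NS1-free strain serves as control.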
SARS PLP yeast: qHTS of Yeast-based Assay for SARS-CoV PLP | S. cerevisiae expressing SARS-CoV PLpro, growth rescue; control for the full effect not named in the record | Potency, µM (doses to about 32.9 µM), for the others: top-dose activity, positive = growth rescue | 330,000 compounds, 0.19% hits | AID 485353, 2010; also: 0% is about no effect; nearly all actives have a fitted effect of over 55% in size; growth read by luminescence after 48 h
Cruzain inh noDet: qHTS Assay for Promiscuous and Specific Inhibitors of Cruzain (without detergent); Cruzipain (Trypanosoma cruzi), P25779; purified cruzain, Z-FR-AMC fluorescence, no detergent; Potency, µM, inactives show max response, negative = inhibition, most hits filed as inhibitors; 200,000 compounds, 2.3% hits; AID 1476, 2009; active = well fitted curve in the direction sought with a large enough effect; inconclusive = small, poorly fitted or top-dose-only effect, or another doubt; inactive = no such curve, though single readings can be large; an effect the other way counts as inactive or inconclusive;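 also: plate controls were enzyme without inhibitor for no effect and buffer without enzyme for full effect; nearly all actives have a fitted effect of over 40% in size; top concentration of the series not given in the record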
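Purified cruzain at 1.5 nM, pre-incubated 15 min with compound at room temperature in 100 mM sodium acetate pH 5.5, 5 mM DTT, 0.00005% Triton X-100. Reaction started with 2 uM Z-FR-AMC; AMC fluorescence increase over 60 s gives rate.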
An asterisk follows results filed as active; ? = inconclusive; nt = not tested or not shown; & = joins results of further samples; [ ] = dose if it differs, or a comment. Unless noted, calls follow the shape of the dose curve; as a rule, active means well fitted rising curve with a large enough effect; inconclusive means small, poorly fitted or top-dose-only effect; inactive means no such curve, though single readings can be large or run the other way. Potency is read from the fitted curve at half-maximal effect.

compound | RE007 growth inh | Lassa entry inh | Cruzain inh noDet | 2A StopGo | Cruzain inh Det | SARS PLP yeast | MARV entry inh | NS1 inh
Nc1ccc(S(=O)(=O)NC2=NCCCCC2)cc1N | 11% | nt | nt | 5% | nt | 4% | -3%[46.1 µM] | nt
Nc1nn(-c2ccccc2)nc1C(=O)OCc1ccccc1Br | nt | -10%[46.1 µM] | 5% | 23% | -10.0% | nt | 25%[46.1 µM] | nt
CC1(C)CC(=O)C=C(Nc2ccc(Br)cn2)C1 | 11% | -4% | -7% | nt | -2.0% | 2% | 1% | -6%
COc1ccc(/C=C/c2cc[n+](C(=O)Cc3ccccc3)cc2)cc1 | -18% | -28% | nt | ? | nt | -3% | -28%[46.1 µM] | nt
COc1cccc(CNC(=O)CCC(=O)N2C[C@H]3C[C@H](C2)c2cccc(=O)n2C3)c1OC | 1% | nt | nt | -9% | nt | -2% | nt | 0%
COc1cccc(C(=O)NNC2=C(C(=O)C(F)(F)F)CCC2)c1 | 5% | 1%[46.1 µM] | nt | 3% | nt | -1% | ? | -7%
CCOC(=O)C(C)n1cnc2sc(C)c(C)c2c1=O (centres undefined) | 3% | 5% | -2% | 5% | -1.9% | -23% | -28%[46.1 µM] | 3%
NC(=O)c1ccccc1OCCOCCOCCOc1ccccc1C(N)=O | 17% | 1% | 7% | -10% | 0.0% | 0% | -3%&-3% | 5%
CNc1nc(Cl)nc(Nc2ccccc2)n1 | 5% | ? | nt | 37%[activator] | nt | -1% | ? | nt
O=C(NNC(=O)C1CC=CCC1C(=O)O)c1cccs1 (centres undefined) | 12% | 9% | nt | 4% | nt | 0% | 1%[46.1 µM] | 1%
CC(=O)N1CCN(C23CC4CC(CC(C4)C2)C3)CC1 | -14% | nt | nt | -13% | nt | 5% | nt | -5%
N/C(Cc1ccc([N+](=O)[O-])cc1)=N\OC(=O)c1cccc(Br)c1 | 10% | nt | nt | -9% | nt | -5% | nt | -77%
O=C(c1ccc([N+](=O)[O-])o1)N1CCc2ccccc2C1 | ? | nt | nt | 3% | nt | -20% | nt | -79%
CCOC(=O)C(NC(C)=O)(Nc1ccc(S(=O)(=O)Nc2ncccn2)cc1)C(F)(F)F (centres undefined) | 2% | -1% | nt | 1% | nt | 5% | 1%[46.1 µM] | nt
CC(C)c1nc2sc3c(c2c(=O)o1)CCCC3 | -17% | 4% | -6% | 14% | 4.0% | -12% | 17% | -63%

compound | RE007 growth inh | Lassa entry inh | Cruzain inh noDet | 2A StopGo | Cruzain inh Det | SARS PLP yeast | MARV entry inh | NS1 inh
CN(CC(=O)Nc1ccc(F)cc1)C(=O)c1ccc(OCc2ccccc2)cc1 | 4% | -8% | nt | 6% | nt | -5% | -12% | nt
COc1ccc(-n2c(SCC(=O)Nc3ccc(C(N)=O)cc3)nc3ccccc3c2=O)cc1OC | -16% | 4%[46.1 µM] | nt | -3% | nt | 1% | -25%[46.1 µM] | 8%
Cc1c(-c2ccccc2)c(=O)oc2c(CN3CCOCC3)c(O)ccc12 | nt | -8%[46.1 µM] | -26% | -5% | -13% | nt | nt | nt
CCOC(=O)C1(CCOC)CCN(Cc2ccc(C(=O)OC)cc2)CC1 | -18% | 7% | nt | -7% | nt | -7% | ? | 4%
N#CCN1C(=O)C(=O)N(Cc2cccc(C(F)(F)F)c2)C1=O | -9% | -3%[46.1 µM] | nt | 2% | nt | 4% | -5%[46.1 µM] | 1%
CCOC(=O)C1=C(CSc2nc(C)cc(C)c2C#N)OC(N)=C(C#N)C1c1cccs1 (centres undefined) | -21% | -21% | 0% | -27% | -2.5% | -5% | -29%[46.1 µM] | 16%
CCC(C)COC(=O)c1ccc(C(=O)O)cc1 (centres undefined) | -15% | 5% | 1% | 25% | 14% | 3% | -24%[46.1 µM] | -50%
CCOc1ccc(N(Cc2cc3cc(C)ccc3[nH]c2=O)S(=O)(=O)c2ccccc2)cc1 | 4% | ? | nt | -24% | nt | 6% | ? | 12%
CCc1ccc2nc(N)sc2c1 | -13% | nt | nt | 50%[activator] | nt | -18% | nt | -30%
Cc1c(Cl)cccc1NC(=S)NC1CC1 | 2% | -1% | 3% | -2% | -1.9% | 30% | 23% | 7%
CCC(Nc1nc(-c2ccccc2)nc2ccccc12)C(=O)O (centres undefined) | -11% | -1% | -3% | nt | 5.0% | 9% | -4% | -1%
CCOc1ccc(Cn2c(CNS(=O)(=O)c3ccc(Cl)s3)nc3cccnc32)cc1 | nt | -4%[46.1 µM] | 9% | 59%[activator] | -6.4% | nt | nt | nt
O=C(c1cccc([N+](=O)[O-])c1)c1cc2ccccc2o1 | -13% | ? | 1% | 22% | -9.3% | 27% | 13% | 10%
O=C(CN(Cc1ccccc1)C(=O)c1ccco1)NCc1ccc(F)cc1 | 11% | -22% | 1% | 9% | 4.3% | -9% | ? | -3%
O=C(O)c1ccc(S(=O)(=O)c2ccc3c(c2)C(=O)N(c2ccc(O)cc2)C3=O)cc1 | -6% | nt | nt | -12% | nt | -1% | nt | -2%

compound | RE007 growth inh | Lassa entry inh | Cruzain inh noDet | 2A StopGo | Cruzain inh Det | SARS PLP yeast | MARV entry inh | NS1 inh
O=C1CN=C(c2ccccc2)c2oc3ccc(Br)cc3c2N1 | 15% | 13% | -2% | -13% | -6.2% | -2% | -8% | 0%
CCOC(=O)c1cc(NC(=O)N(C(C)C)C2CCCCC2)c(C)nc1C | -4% | 15%[46.1 µM] | nt | -8% | nt | 0% | 9%[46.1 µM] | 3%
COc1ccc(NC(=O)C(=O)N/N=C/c2cc(C)n(-c3cccc(Cl)c3Cl)c2C)c(OC)c1 | 2% | 21% | 13µM* | nt | -4.2% | -7% | -22% | 11%
CCn1c(SCC(=O)Nc2ccc3[nH]c(=O)[nH]c3c2)nnc1-c1ccccc1 | 5% | nt | nt | -3% | nt | 1% | nt | 2%
Cc1cccc(NC(=O)CSc2nc(C)c(Cc3ccccc3)c(=O)[nH]2)c1C | nt | 15%[46.1 µM] | -4% | 0% | 0.8% | 0% | 10%&10%[46.1 µM] | nt
O=C(NCc1ccccc1Cl)C(=O)c1c[nH]c2ccccc12 | -9% | nt | nt | -11% | nt | 0% | nt | -4%
COC(=O)Cc1c(O)ccn(Cc2cccc3ccccc23)c1=O | -3% | 0% | -7% | -17% | 5.7% | -1% | 0% | 9%
Cc1ccc(OCc2nnc(N)s2)cc1C | -4% | ? | nt | 51%[activator] | nt | -2% | 1% | 1%
COc1ccccc1NC(=O)Cn1cncc1-c1ccc([N+](=O)[O-])cc1 | -2% | -12% | -11% | -23% | -4.7% | -2% | ? | 14%
O=Cc1c(NCCN2CCOCC2)c2ccccc2[nH]c1=O | -16% | -6%[46.1 µM] | nt | -1% | nt | 2% | -6%[46.1 µM] | ?
Nc1ccnc(C(F)(F)F)c1C(=O)c1ccccc1 | 22% | 0% | 4% | -25% | 7.3% | -2% | -16% | -6%
CC(NC(=O)c1ccc(F)cc1)c1nc2ccccc2n1Cc1ccccc1F (centres undefined) | -9% | 4% | 3% | -12% | 0.1% | -2% | 2% | -15%
Cc1cc(NC2C3CC4CC(C3)CC2C4)n2nnnc2n1 (centres undefined) | 3% | ? | ? | -19% | 3.9% | -2% | -11% | -5%
Cc1ccccc1CC1(CO)CCCN(Cc2nc(-c3cccs3)oc2C)C1 (centres undefined) | 16% | nt | nt | ? | nt | -1% | nt | 0%
CCOC(=O)C1CCN(C(c2ccccn2)c2c(C)[nH]c3ccccc23)CC1 (centres undefined) | -13% | -16% | -14% | -9% | 3.9% | 4% | -6% | -10%

compound | RE007 growth inh | Lassa entry inh | Cruzain inh noDet | 2A StopGo | Cruzain inh Det | SARS PLP yeast | MARV entry inh | NS1 inh
CCC(CC)C(=O)Nc1cccc(-c2nc3ccccc3s2)c1 | nt | 3%[46.1 µM] | 2% | -3% | -12% | nt | ? | nt
COc1ccc(Nc2nc3ccc(Cl)cc3n3nnnc23)cc1OC | nt | 14%[46.1 µM] | -6% | -21% | -3.6% | nt | 4%[46.1 µM] | nt
Cc1ccc(S(=O)(=O)n2nc(C)c(C#N)c2N)cc1 | -17% | 6% | 6% | -10% | 1.3% | -28% | -1% | 17%
Cc1ccc(C)c(N2CCN(Cc3nnc(-c4ccccc4)o3)CC2)c1 | nt | 26%[46.1 µM] | 19% | -12% | -4.6% | nt | 4%[46.1 µM] | nt
CC(C)C1COS(=O)(=O)NC1CC(=O)SC(C)(C)C (centres undefined) | -6% | nt | nt | -9% | nt | -6% | nt | 1%
O=C(NNc1ccccc1)C(CCO)C(=O)NNc1ccccc1 | 221% | ? | nt | 15% | nt | -1% | ? | nt
O=C(COc1ccccc1/C=C1\SC(=S)NC1=O)Nc1ccc(F)cc1 | -4% | -4%[46.1 µM] | nt | ? | nt | 9% | ? | nt
COC(=O)c1sc(N)c(C(=O)OC)c1CSc1nnc(-c2ccccc2Cl)n1C | 0% | 22% | -4% | 71%[activator] | -4.6% | 2% | -33% | 4%
CN(C)CCCN(C(=O)C1=COCCO1)c1nc2ccc(Br)cc2s1 | -14% | -20%[46.1 µM] | nt | -5% | nt | -6% | ? | -2%
CC(C(=O)N(C)Cc1ccccc1)N1CCN(C/C=C/c2ccccc2)CC1 (centres undefined) | 23% | -28%[46.1 µM] | nt | -25% | nt | 2% | ? | -4%
CCCCn1c(N)c(N(CCC(C)C)C(=O)C2CC(=O)N(CCc3ccc(OC)c(OC)c3)C2)c(=O)[nH]c1=O (centres undefined) | 16% | 16% | nt | 2% | nt | -2% | 2%[46.1 µM] | nt
CCOc1ccc(C(=O)CCC(=O)Nc2ccccc2C)cc1 | -9% | nt | nt | 14% | nt | -1% | nt | -7%
O=C(CN1C(=O)NC2(CCCc3ccccc32)C1=O)NCc1ccc(Cl)cc1Cl (centres undefined) | -7% | 9% | nt | 0% | nt | -3% | ? | 1%
